# Vaccinia stage: blocks a specific stage of Vaccinia orthopoxvirus infection | Vaccinia-infected cells, mCherry/Venus stage reporter fluorescence; stronger effect = lower value; some inactives read as strong as hits | activity change (mCherry), % (concentration not given with the values) | hit rate 0.01% among 89,000;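 active means mCherry past -33% and 40 or more points under the early reporter, replicates agreeing; inconclusive means past -33% without that gap or agreement; tested in A549 cells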;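 further: scaled between vehicle wells and reference inhibitor wells; 23 nL library stock went into each well; one replicate is shown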
# Vaccinia stage Venus: also measured in Vaccinia stage; calls as there; activity change (Venus), %; measured here: Venus reporter, other viral stage;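 negative = less Venus signal; first of two replicates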
# * = called active by the depositor; ? = inconclusive; nt = not tested or not shown; & = joins results of further samples. Only part of the results is shown, so the mix of outcomes need not match the whole.
# Sample of the layout (five entries):
SMILES,Vaccinia stage,Vaccinia stage Venus
C[C@@H]1CN([C@H](C)CO)C(=O)Cc2cc(NC(=O)CCCCCC(=O)Nc3ccccc3N)ccc2O[C@@H]1CN(C)Cc1ccc(C(F)(F)F)cc1,?,nt
C[C@@H]1CCCCO[C@H](CN(C)C(=O)c2ccccc2)[C@@H](C)CN([C@@H](C)CO)C(=O)c2cc(NC(=O)Nc3ccc(F)cc3)ccc2O1,20,9
CC(=O)NC[C@@H]1[C@@H](c2ccc(-c3cccc(F)c3)cc2)[C@@H](CO)N1C(=O)C1CC1,7,1
COC(=O)[C@H]1[C@H](CO)[C@H]2Cn3c(ccc(C4=CCCC4)c3=O)[C@H]2N1Cc1cncnc1,23,7
O=C(CN1CCOCC1)N1CC2(C1)[C@@H](c1ccccc1)[C@H](CO)N2Cc1cccc(F)c1,4,3

# All compounds of this part, previewed entries included:
SMILES,Vaccinia stage,Vaccinia stage Venus
C[C@@H]1CN([C@H](C)CO)C(=O)Cc2cc(NC(=O)CCCCCC(=O)Nc3ccccc3N)ccc2O[C@@H]1CN(C)Cc1ccc(C(F)(F)F)cc1,?,nt
C[C@@H]1CCCCO[C@H](CN(C)C(=O)c2ccccc2)[C@@H](C)CN([C@@H](C)CO)C(=O)c2cc(NC(=O)Nc3ccc(F)cc3)ccc2O1,20,9
CC(=O)NC[C@@H]1[C@@H](c2ccc(-c3cccc(F)c3)cc2)[C@@H](CO)N1C(=O)C1CC1,7,1
COC(=O)[C@H]1[C@H](CO)[C@H]2Cn3c(ccc(C4=CCCC4)c3=O)[C@H]2N1Cc1cncnc1,23,7
O=C(CN1CCOCC1)N1CC2(C1)[C@@H](c1ccccc1)[C@H](CO)N2Cc1cccc(F)c1,4,3
O=C(C[C@H]1CC[C@@H](NC(=O)NC2CCCCC2)[C@H](CO)O1)NCc1ccc(F)cc1,-5,2
C[C@H](O)C#Cc1ccc2c(c1)O[C@H](CN(C)C(=O)CC1CC1)[C@@H](C)CN([C@H](C)CO)S2(=O)=O,-1,0
O=C(C1CCOCC1)N1CC(=O)N2[C@H](C1)[C@H](c1ccc(/C=C/c3ccccc3)cc1)[C@@H]2CO,?,nt
CCCNC(=O)N1[C@H](CO)[C@H]2c3ccccc3N(C(=O)Nc3cccc(Cl)c3)C[C@H]21,22,11
NCC[C@H]1CC[C@@H](NC(=O)C2CC2)[C@H](CO)O1,13,6
C/C=C/c1ccc([C@H]2[C@@H](C#N)N(S(=O)(=O)c3cccc(F)c3)[C@H]2CO)cc1,-9,-3
C[C@@H]1CN([C@H](C)CO)C(=O)c2cc(NS(=O)(=O)c3ccccc3)ccc2O[C@H]1CN(C)Cc1ccc(C(=O)O)cc1,5,5
C[C@@H]1CN([C@@H](C)CO)C(=O)Cc2cc(NC(=O)Nc3cccc4ccccc34)ccc2O[C@@H]1CN(C)S(=O)(=O)c1ccccc1,10,11
COc1ccccc1NC(=O)N1CCCCN2[C@H](C1)[C@@H](c1ccc(-c3cccc(C#N)c3)cc1)[C@@H]2CO,?,nt
CO[C@@H]1CN(C)C(=O)c2ccc(NS(C)(=O)=O)cc2OC[C@H](C)N(C(=O)C2CCCC2)C[C@H]1C,-8,-7

# Copied from the results shown for reference:
SMILES,Vaccinia stage,Vaccinia stage Venus
NCC[C@H]1CC[C@@H](NC(=O)C2CC2)[C@H](CO)O1,13,6
C/C=C/c1ccc([C@H]2[C@@H](C#N)N(S(=O)(=O)c3cccc(F)c3)[C@H]2CO)cc1,-9,-3
C[C@@H]1CN([C@H](C)CO)C(=O)c2cc(NS(=O)(=O)c3ccccc3)ccc2O[C@H]1CN(C)Cc1ccc(C(=O)O)cc1,5,5

# (list continues)
SMILES,Vaccinia stage,Vaccinia stage Venus
CCS(=O)(=O)N1CCC2(CC1)CN(Cc1ccccc1OC)[C@@H](CO)c1c2c2ccc(OC)cc2n1C,-2,1
CC(C)NC(=O)N(C)C[C@@H]1Oc2cc(C#CC(C)(C)O)ccc2S(=O)(=O)N([C@@H](C)CO)C[C@@H]1C,32,11
CN(C)CC(=O)Nc1ccc2c(c1)[C@@H]1C[C@H](CC(=O)NCc3cc(F)ccc3F)O[C@H](CO)[C@@H]1O2,-1,0
C[C@@H]1CN([C@H](C)CO)C(=O)Cc2cc(NC(=O)Nc3ccc(F)cc3)ccc2O[C@@H]1CN(C)S(=O)(=O)c1cccs1,9,2
COc1cccc(S(=O)(=O)Nc2ccc3c(c2)C(=O)N(C)C[C@H](OC)[C@H](C)CN[C@@H](C)CO3)c1,15,10
O=C(O)C[C@H]1CC[C@@H](NC(=O)Nc2ccccc2)[C@@H](CO)O1,-13,-21
O=S(=O)(N[C@H]1CC[C@H](CCn2cc(C3CC3)nn2)O[C@H]1CO)c1ccc(Cl)cc1,2,-5
C[C@H]1CN([C@@H](C)CO)C(=O)Cc2cc(NC(=O)Cc3ccccc3)ccc2O[C@@H]1CN(C)Cc1ccc(C(=O)Nc2ccccc2N)cc1,-6,-7
C[C@@H]1CN([C@@H](C)CO)C(=O)c2cc(NS(=O)(=O)c3cn(C)cn3)ccc2O[C@@H](C)CCCCO[C@@H]1CN(C)C,26,13
COc1ccc(NC(=O)N(C)C[C@@H]2OCCCC[C@H](C)Oc3ccc(NC(=O)c4ccccc4)cc3C(=O)N([C@H](C)CO)C[C@@H]2C)cc1,-15,-9
C[C@H](CO)N1C[C@H](C)[C@@H](CN(C)S(C)(=O)=O)Oc2c(NC(=O)C3CCOCC3)cccc2C1=O,9,9
C[C@H]1CN([C@@H](C)CO)S(=O)(=O)c2ccc(-c3cncnc3)cc2O[C@H]1CN(C)C(=O)NC1CCCC1,8&17,21&26
N#Cc1cccc(-c2ccc3c(c2)[C@@H]2[C@@H](CCN2C(=O)c2ccccc2F)[C@H](CO)N3)c1,?,nt
O=C(C[C@H]1CC[C@@H]2[C@H](COC[C@@H](O)CN2Cc2ccc(Oc3ccccc3)cc2)O1)N1CCN(c2ccccc2)CC1,?,nt
COc1ccc(NC(=O)N(C)C[C@H]2Oc3c(NC(=O)NC4CCCCC4)cccc3C(=O)N([C@H](C)CO)C[C@H]2C)cc1,-7,-14
C[C@H](NC(=O)C[C@H]1CC[C@@H](NS(=O)(=O)c2cccc(F)c2)[C@H](CO)O1)c1ccccc1,8,13
C[C@@H]1CN([C@H](C)CO)S(=O)(=O)c2ccc(C#CC3CCCC3)cc2O[C@@H]1CN(C)C(=O)Nc1cc(F)ccc1F,?,nt
COc1ccccc1-c1ccccc1[C@H]1[C@@H](C#N)N(C(=O)C2CCC2)[C@@H]1CO,1,-3
O=C(N[C@@H]1CC[C@H](CCn2cc(C3CCCC3)nn2)O[C@H]1CO)c1cccnc1,17,10
CO[C@H]1CN(C)C(=O)c2ccc(NC(=O)C3CC3)cc2OC[C@@H](C)N(C(=O)c2ccccn2)C[C@H]1C,8,12
C[C@@H]1CN([C@@H](C)CO)C(=O)c2cc(C#CCc3ccccc3)cnc2O[C@@H]1CN(C)C(=O)C1CCC1,14,11
C[C@@H]1CCCCO[C@H](CN(C)S(=O)(=O)c2ccc(F)cc2)[C@@H](C)CN([C@H](C)CO)C(=O)c2cc(NS(=O)(=O)c3cn(C)cn3)ccc2O1,11,13
COc1ccc(NC(=O)Nc2ccc3c(c2)CC(=O)N([C@@H](C)CO)C[C@@H](C)[C@H](CN(C)S(C)(=O)=O)O3)cc1,25,25
C[C@H]1CCCCO[C@H](CN(C)C(=O)Nc2cccc3ccccc23)[C@@H](C)CN([C@@H](C)CO)C(=O)c2cc(NC(=O)c3ccncc3)ccc2O1,-13,-2
CO[C@@H](CN(C)C(=O)c1cnccn1)[C@@H](C)CN([C@H](C)CO)S(=O)(=O)c1ccccc1,16,10
C[C@@H](NC(=O)C[C@H]1CC[C@@H](NC(=O)C2CCC2)[C@H](CO)O1)c1ccccc1,-6,-3
COCC(=O)N(C)C[C@H]1Oc2cc(Br)ccc2S(=O)(=O)N([C@@H](C)CO)C[C@@H]1C,21,4
COc1ccc(S(=O)(=O)N(C)C[C@@H]2OCCCC[C@@H](C)Oc3ccc(NC(=O)NC4CCCCC4)cc3C(=O)N([C@@H](C)CO)C[C@@H]2C)cc1,25,12
CCC(=O)N[C@H]1CC[C@@H](CCNC(=O)Nc2ccc(C(F)(F)F)cc2)O[C@@H]1CO,-10,5
CCCNC(=O)N1[C@H](CO)[C@H](c2ccc(C3=CCCCC3)cc2)[C@@H]1C#N,-1,5
O=C(NC1CCCCC1)N[C@H]1CC[C@@H](CCNS(=O)(=O)c2ccc(Cl)cc2)O[C@@H]1CO,-9,1
O=C1CN(Cc2ccccc2)C[C@H]2[C@@H](c3ccc(-c4ccccc4F)cc3)[C@@H](CO)N12,0,4
Cc1noc(C)c1NC(=O)Nc1cccc2c1O[C@@H](CN(C)C(=O)Nc1ccc(C(F)(F)F)cc1)[C@@H](C)CN([C@H](C)CO)C2=O,-1,2
C[C@H](CO)N1C[C@H](C)[C@H](CN(C)Cc2ccc(C(=O)O)cc2)Oc2ccc(NC(=O)Cc3cn(C)c4ccccc34)cc2CC1=O,45,31
C[C@@H]1CN([C@H](C)CO)C(=O)c2cc(NC(=O)CCCN(C)C)ccc2O[C@@H](C)CCCCO[C@H]1CN(C)C(=O)Nc1ccccc1,40,19
COc1ccc(CNC(=O)c2cc3c(c(-c4cccc(-c5cccc(C#N)c5)c4)n2)[C@H](CCO)N([S@@](=O)C(C)(C)C)C3)cc1,?,nt
COc1ccc(C[C@H]2CCc3cnnn3COC[C@@H](C(C)C)NC2=O)cc1,13,7
COCC#Cc1ccc2c(c1)O[C@H](CN(C)CC1CC1)[C@H](C)CN([C@@H](C)CO)S2(=O)=O,3,-7
C[C@H](CO)N1C[C@H](C)[C@H](CN(C)Cc2ccc(Oc3ccccc3)cc2)Oc2ccc(NC(=O)CCCCCC(=O)Nc3ccccc3N)cc2CC1=O,?,nt
Cc1ccc(S(=O)(=O)N[C@@H]2C=C[C@H](CC(=O)NCCN3CCCCC3)O[C@H]2CO)cc1,5,0
O=C(C[C@@H]1CC[C@@H](NC(=O)CN2CCOCC2)[C@H](CO)O1)NCc1cccc(F)c1,3,7
COc1ccc(S(=O)(=O)N(C)C[C@@H]2Oc3ccc(NS(=O)(=O)c4cn(C)cn4)cc3CC(=O)N([C@@H](C)CO)C[C@H]2C)cc1,6,3
N#C[C@@H]1[C@H](c2ccc(C#CCC3CCCC3)cc2)[C@H](CO)N1C(=O)c1ccccn1,-28,-23
C/C=C/c1ccc([C@H]2[C@H](CO)N(C(C)=O)[C@H]2CNC(=O)c2ccccc2)cc1,-2,-2
C[C@@H]1CN([C@@H](C)CO)C(=O)c2cc(NC(=O)c3ccncc3)ccc2O[C@@H](C)CCCCO[C@@H]1CN(C)Cc1ccccc1,-9,-15
C[C@@H]1CN([C@@H](C)CO)C(=O)c2cc(NC(=O)Cc3cn(C)c4ccccc34)ccc2O[C@H]1CN(C)C(=O)NC1CCCCC1,4,-2
C[C@@H]1CCCCO[C@H](CN(C)Cc2ccc(Cl)c(Cl)c2)[C@@H](C)CN([C@@H](C)CO)C(=O)c2cc(NS(=O)(=O)c3ccccc3)ccc2O1,?,nt
COc1cccc(-c2cnc3c(c2)C(=O)N([C@@H](C)CO)C[C@@H](C)[C@@H](CN(C)Cc2ccncc2)O3)c1,19,4
COc1ccc2c3c([nH]c2c1)[C@@H](CO)N(CC1CCCCC1)CC31CN(C(=O)C2CCOCC2)C1,9,6
O=C(N[C@@H]1CC[C@H](CC(=O)N2CCN(c3ccccc3)CC2)O[C@H]1CO)c1ccncc1,12,11
C[C@@H]1CN([C@@H](C)CO)C(=O)c2cccc(NC(=O)Nc3ccc4c(c3)OCO4)c2O[C@H]1CN(C)C(=O)NC1CCCCC1,-5,-8
C[C@@H]1CN([C@@H](C)CO)C(=O)c2cc(NC(=O)Cc3ccccc3)ccc2O[C@H]1CN(C)CC1CC1,-6,-11
O=C(O)[C@]1(Cc2ccccc2)N=C(c2ccc(OCCCO)cc2)O[C@@H]1c1ccccc1,6,-1
CNC[C@H]1Oc2ccc(NC(=O)C3CC3)cc2C(=O)N([C@H](C)CO)C[C@@H]1C,12,5
C[C@H]1CN([C@@H](C)CO)C(=O)c2cccc(NC(=O)Nc3cccc4ccccc34)c2O[C@H]1CN(C)C(=O)Nc1cccc2ccccc12,-1,19
CN(C)CCCNC(=O)C[C@H]1CC[C@@H]2[C@@H](COc3ccc(NC(=O)c4cccc(F)c4)cc3C(=O)N2C)O1,12,11
CC(C)COC(=O)N(C)C[C@@H]1OCc2cn(nn2)CCCC(=O)N([C@@H](C)CO)C[C@H]1C,20&5,16&4
CCCC#Cc1ccc2c(c1)O[C@H](CN(C)C(=O)CC1CC1)[C@@H](C)CN([C@H](C)CO)S2(=O)=O,-15,-20
COc1ccc(NC(=O)Nc2cccc3c2O[C@H](CN(C)Cc2ccc(C(=O)O)cc2)[C@H](C)CN([C@H](C)CO)C3=O)cc1,2,2
C[C@@H]1CN([C@H](C)CO)C(=O)c2cc(NC(=O)CCC(F)(F)F)ccc2O[C@H]1CN(C)C(=O)Nc1ccccc1,6,-1

# Continuation:
SMILES,Vaccinia stage,Vaccinia stage Venus
CO[C@@H]1CN(C)C(=O)c2ccc(NC(=O)c3ccccn3)cc2OC[C@@H](C)N(C(=O)C2CCC2)C[C@H]1C,-5,-3
C[C@@H]1CCCCO[C@@H](CN(C)Cc2ccc(C(F)(F)F)cc2)[C@H](C)CN([C@H](C)CO)C(=O)c2cc(NS(=O)(=O)c3ccccc3)ccc2O1,?,nt
C[C@@H]1CN([C@@H](C)CO)C(=O)c2cc(NS(C)(=O)=O)ccc2O[C@@H](C)CCCCO[C@H]1CN(C)C(=O)C1CCCCC1,8,4
CCN(C[C@@H]1[C@@H](c2ccc(C3=CCCCC3)cc2)[C@@H](CO)N1CC1CC1)C(C)=O,?,nt

# Bioassay records from PubChem.
